RecA intein inh: inhibitors of M. tuberculosis RecA intein splicing; P9WHJ3; 290,000 tested, 0.75% active; inhibition, %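 (about 9 µM by stock and volumes)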; cell-free RecA intein splicing, fluorescence; AID 2221; in the data active = inhibition above about 30%;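 also: 0% = vehicle wells and 100% = reference inhibitor control wells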
Target sequence (P9WHJ3 whole entry, looked up): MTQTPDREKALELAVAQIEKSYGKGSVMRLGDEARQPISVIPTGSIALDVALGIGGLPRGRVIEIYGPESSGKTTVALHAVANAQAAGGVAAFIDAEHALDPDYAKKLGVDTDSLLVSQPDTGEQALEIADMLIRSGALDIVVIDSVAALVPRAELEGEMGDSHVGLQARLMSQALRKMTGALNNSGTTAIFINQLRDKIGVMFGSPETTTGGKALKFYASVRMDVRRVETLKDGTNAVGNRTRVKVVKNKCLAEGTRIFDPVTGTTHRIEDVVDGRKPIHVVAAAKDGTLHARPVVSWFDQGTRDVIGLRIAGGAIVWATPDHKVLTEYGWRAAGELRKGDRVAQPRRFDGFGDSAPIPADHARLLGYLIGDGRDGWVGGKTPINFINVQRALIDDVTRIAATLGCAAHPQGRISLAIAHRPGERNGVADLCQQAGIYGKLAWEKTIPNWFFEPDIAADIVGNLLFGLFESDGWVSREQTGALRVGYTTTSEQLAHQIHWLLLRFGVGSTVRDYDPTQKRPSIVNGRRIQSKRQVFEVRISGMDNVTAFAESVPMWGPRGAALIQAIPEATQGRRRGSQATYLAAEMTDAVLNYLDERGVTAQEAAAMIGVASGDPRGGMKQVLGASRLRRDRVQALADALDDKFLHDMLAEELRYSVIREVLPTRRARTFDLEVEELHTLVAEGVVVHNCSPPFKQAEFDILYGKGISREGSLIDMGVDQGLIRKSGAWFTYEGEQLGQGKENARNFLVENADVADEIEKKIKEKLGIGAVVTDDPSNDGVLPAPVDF
Mtb growth: M. tuberculosis H37Rv growth inhibitors, H37Rv strain (AID 1626) | M. tuberculosis H37Rv growth inhibition; higher % means a stronger effect | inhibition, % at 10 µM; hits with a dose series show IC50 in µM | 220,000 tested, 0.95% active;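 active = confirmed in a dose series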;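 also: bacteria incubated seven days before Alamar blue readout; 0% = bacteria only wells and 100% = bacteria with antibiotic wells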
Arbovirus anti: antivirals against arbovirus infection. arbovirus infection cell-based antiviral screen. inhibition, % at 10 µM. 200,000 tested, 0.37% active;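 active = inhibition from about 30%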;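 also: bluetongue infection of BSR cells; cell survival read as ATP light after 72 h; 0% = infected wells without compound and 100% = uninfected wells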
Mtb betalactam: beta-lactam sensitization of Mtb H37Rv. 330,000 tested, 0.27% active. M. tuberculosis H37Rv growth with meropenem, percent inhibition; hits of this screen are not shown here. inhibition, % at 25 µM;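 active = about 74% or more and at least 40 points above the plate without the antibiotic, then above 30% in a dose series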;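 also: growth measured after seven days incubation then overnight dye step; 0% = bacteria only wells and 100% = bacteria with antibiotic; twin plates without the antibiotic show which effects depend on it; some results filed as inactive read as strong as hits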
YopH inh: blocks Yersinia enterocolitica YopH tyrosine phosphatase | fluorescence Ex485/Em525 | AID 898 | 140,000 tested, 0.16% active | inhibition, %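 (about 10 µM by stock and volumes)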;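 active = inhibition of 50% or more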;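 also: controls were vehicle for no effect and minimum signal wells for full effect; inactives centre near -20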
Arbovirus anti repeat: also measured in Arbovirus anti; calls as there; inhibition, %; measured here: 10K subset replicate screen; many hits read low in the repeat;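 first of two repeat runs on a subset; 0% = infected and 100% = uninfected wells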
* marks the source's active call; other numbers are inactive results; . = not tested or not shown. Not all compounds are listed (hit frequency here may not be typical).

SMILES | RecA intein inh | Mtb growth | Arbovirus anti | Mtb betalactam | YopH inh | others
O=C(c1ccccc1)N1CCN(C(=O)c2cc3ccccc3o2)CC1 | -0.6 | -4% | -2 | -2 | 17
COc1ccc(C(=O)NC(=S)N2CCCCC2)cc1 | 0.7 | 4% | -5 | 1 | -15
COc1ccc([N+](=O)[O-])cc1NC(=O)CCN1CCOCC1 | -0.5 | . | . | 3 | .
COc1ccc(/C=N/NC(=O)c2ccccc2)cc1CN1CCN(c2ccc(F)cc2)CC1 | -0.8 | . | 3 | 0 | -43
Cc1oc(-c2ccccc2F)nc1CS(=O)CC(=O)NC1CCCCC1 (stereo not given) | -1.3 | . | . | -4 | .
Cc1cc(C)nc(SCc2nnc(SCC(=O)OC3CCCCC3)o2)n1 | 0.2 | 48% | -3 | 98 | -32
CCc1cc(OCCOCCN(C)C)ccc1Cl | 0.2 | 9% | -20 | -10 | -15
O=C(Cc1ccc([N+](=O)[O-])cc1)N1CCCc2ccccc21 | -1.6 | 10% | 5 | -3 | .
O=C(Nc1ccc(S(=O)(=O)NCc2cccnc2)cc1)c1ccco1 | 0.9 | -4% | 10 | 5 | -42
O=P(O)(O)/C=C(\Cl)c1ccccc1 | -0.6 | -1% | 5 | 2 | -18
CCn1c(SCC(=O)OCc2ccccc2)nnc1-c1ccco1 | -0.5 | -7% | 6 | -7 | 0
Cc1cnc(C(=O)N2CCCC(C(=O)c3ccc(C(F)(F)F)cc3)C2)cn1 (stereo not given) | -2.4 | -3% | 6 | -13 | .
CCN(CC)c1ccc(/C=N/NS(=O)(=O)c2cccc([N+](=O)[O-])c2)cc1 | -1.2 | 1% | -4 | 8 | -1
NS(=O)(=O)c1ccc(CCN=Cc2ccccc2O)cc1 | -1.3 | 0% | 6 | -1 | -8
COc1ccc(C(C(=O)NCc2ccccc2)N(Cc2cccnc2)C(=O)c2snc(C(N)=O)c2N)cc1OC (stereo not given) | -1.7 | . | . | 3 | .
Cc1cccc(NC(=O)CSc2nc3[nH]ncc3c(=O)[nH]2)c1C | -0.3 | 4% | 3 | 15 | -35
COc1ccc(/C=C(/NC(=O)c2ccccc2)C(=O)N2CCC(C)CC2)cc1 | 5.7 | . | . | 8 | .
N/C(=N\OC(=O)C12CC3CC(CC(C3)C1)C2)c1ccccn1 | -2.3 | 5% | -1 | -8 | -32
Nc1cnn(C2OC(CO)C(O)C2O)c(=O)n1 (stereo not given) | 0.1 | 3% | -1 | -6 | .
O=C(NC1CC2CCCC(C1)N2C(=O)N1CCCCC1)C1CCCCC1 (stereo not given) | 3.2 | -2% | 3 | 6 | -41
CCn1cc(S(=O)(=O)NCc2ccccc2Br)cn1 | 0.3 | . | . | -7 | .
O=C(c1cccn2c(=O)c3cc(Br)ccc3nc12)N1CCC2(CC1)OCCO2 | -31 | -6% | -6 | -2 | -10
O=[N+]([O-])c1ccc(N2CCNCC2)cc1Sc1nc2ccccc2[nH]1 | 2.1 | 3% | 2 | 14 | -10
COc1ccccc1N1CCN(C(=O)NCc2ccc(Cl)cc2)CC1 | -0.1 | . | . | 8 | .
Cc1cc(CNC(=O)Cn2nc(C)c([N+](=O)[O-])c2C)c2ccccc2n1 | -11 | -7% | 2 | 5 | .

Quoted at random: 2 records from the list
SMILES | RecA intein inh | Mtb growth | Arbovirus anti | Mtb betalactam | YopH inh | others
CCc1cc(OCCOCCN(C)C)ccc1Cl | 0.2 | 9% | -20 | -10 | -15
O=C(c1ccccc1)N1CCN(C(=O)c2cc3ccccc3o2)CC1 | -0.6 | -4% | -2 | -2 | 17

Molecules shown so far that contain an aryl thioether with sulfur outside any ring:
SMILES | RecA intein inh | Mtb growth | Arbovirus anti | Mtb betalactam | YopH inh | others
Cc1cc(C)nc(SCc2nnc(SCC(=O)OC3CCCCC3)o2)n1 | 0.2 | 48% | -3 | 98 | -32
CCn1c(SCC(=O)OCc2ccccc2)nnc1-c1ccco1 | -0.5 | -7% | 6 | -7 | 0
Cc1cccc(NC(=O)CSc2nc3[nH]ncc3c(=O)[nH]2)c1C | -0.3 | 4% | 3 | 15 | -35
O=[N+]([O-])c1ccc(N2CCNCC2)cc1Sc1nc2ccccc2[nH]1 | 2.1 | 3% | 2 | 14 | -10

Continuation:
SMILES | RecA intein inh | Mtb growth | Arbovirus anti | Mtb betalactam | YopH inh | others
CCCN(CC(=O)Nc1ccccc1C)C(=O)c1oc2ccc(OCC)cc2c1C | -4.2 | . | . | -1 | .
CN(C)/C=C1\C(=O)NN=C1c1ccccc1 | 6.5 | 6% | 16 | -5 | .
COc1ccc(CCNC(=O)C2CCN(S(=O)(=O)c3ccc(C)cc3)CC2)cc1OC | 3.1 | . | . | 10 | .
CN1CC2=Cc3ccccc3OC23Oc2ccccc2C=C3C1 | -7.6 | 34% | -32 | 28 | -23
CNC(=O)c1ccc(OCc2ccccc2)c(OC)c1 | . | 5% | -2 | 4 | 33
C/C(=N\NC(=O)CCC(=O)O)c1c(-c2ccccc2)c2cc(Br)ccc2[nH]c1=O | -2.4 | 1% | . | 12 | .
CCOc1ccc(NC(=S)NNC(=S)Nc2cccc(C(F)(F)F)c2)cc1 | -5.3 | -12% | . | -6 | .
CSCC[C@H](N)C(=O)N1CCC(C(=O)N[C@H](C(=O)NCc2ccccc2F)C(C)C)CC1 | -0.5 | . | . | 0 | .
CCC(C)NC(=O)COC(=O)Cc1sc(N)nc1-c1ccc(C)cc1 (stereo not given) | -0.8 | -2% | 0 | -8 | -21
CSc1nnc(-c2ccccc2Cl)o1 | -1.1 | -6% | 1 | 4 | -8
O=C(Nc1cccc(Br)c1)c1ccc2nc(N3C(=O)CCC3=O)sc2c1 | 0.9 | 7% | 14 | -7 | -21
Cc1ccc(C)c(NC(=O)CN(C)C(=O)[C@@H](NC(N)=O)C(C)C)c1 | 0.2 | -3% | 4 | 2 | .
CCOC(=O)N1CCN(C(=O)COc2ccc(S(=O)(=O)NCC(C)C)cc2C)CC1 | 1.8 | -4% | 3 | -4 | -7
COc1cccc(N2C(=O)Nc3ccc(Br)cc3C2(O)C(=O)NCCCN(C)C)c1 (stereo not given) | -0.6 | . | . | 6 | .
O=C(/C=C/c1ccc(Br)cc1)NCCCn1ccnc1 | 1.5 | . | . | -7 | .
CC(C)COc1ccc(N)cc1OCC(C)C | 9.0 | 4% | -3 | 1 | .
Cc1ccc(CCNC(=O)c2coc3nc4ccccc4nc23)cc1 | -0.9 | . | 4 | -8 | -29
CNC(=S)NNC(=O)c1ccccc1Br | -9.5 | -5% | 0 | 5 | -28
CCn1c(O)c(/C=N/NC(=O)c2ccccc2)c(=O)[nH]c1=S | 0.3 | -1% | . | 38 | .
Cc1cc(C)cc(C(=O)NC(CC(N)=O)c2ccc(N3CCN(C)CC3)c([N+](=O)[O-])c2)c1 (stereo not given) | 1.1 | . | . | -13 | .
Oc1ccccc1/C=N/Nc1ncc(Br)cn1 | -5.1 | 61% | -27 | 23 | -21
CCOc1ccccc1NC(=O)c1cc(Cl)ccc1NC(=O)c1ccco1 | -0.4 | -3% | -12 | -12 | 5
CCCC(=O)NC(=S)Nc1cccc(-c2nc3ncccc3o2)c1 | 0.7 | 7% | -1 | -5 | .
COc1ccc(-c2oc3ccccc3c(=O)c2OC(=O)c2ccc(C)cc2)cc1 | -1.3 | 4% | -9 | -2 | -13
Cc1ccc2cc(CN(CCCO)S(=O)(=O)c3cccc4nsnc34)c(=O)[nH]c2c1 | -6.5 | -3% | 9 | -2 | -8

As a working copy, part of the list above:
SMILES | RecA intein inh | Mtb growth | Arbovirus anti | Mtb betalactam | YopH inh | others
COc1ccc(-c2oc3ccccc3c(=O)c2OC(=O)c2ccc(C)cc2)cc1 | -1.3 | 4% | -9 | -2 | -13
Cc1ccc2cc(CN(CCCO)S(=O)(=O)c3cccc4nsnc34)c(=O)[nH]c2c1 | -6.5 | -3% | 9 | -2 | -8

Continued.
SMILES | RecA intein inh | Mtb growth | Arbovirus anti | Mtb betalactam | YopH inh | others
Cc1nn(Cc2cccc(F)c2)c(C)c1NC(=O)c1c([N+](=O)[O-])c(C)nn1C | -11 | -7% | 4 | -9 | 2
COC(=O)CCCNC(=O)c1ccccn1 | -3.5 | -6% | 8 | -5 | .
COC(=O)c1c(NC(NC(=O)CC(C)C)C(Cl)(Cl)Cl)sc2c1CCC2 (stereo not given) | 2.4 | 4% | 20 | 2 | -13
O=S(=O)(NC1Cc2ccccc2C1)c1ccccc1 | 0.8 | . | . | 6 | .
Nn1c(SCC(=O)NC2CCCCC2)nnc1-c1ccc(Cl)cc1 | -3.9 | -4% | 6 | -2 | -3
COc1ccc(S(=O)(=O)NCc2cccs2)cc1 | 0.5 | 3% | -1 | 4 | -33
COc1ccccc1N(CC(O)Cn1ccnc1C)S(=O)(=O)c1ccc(C)cc1 (stereo not given) | 2.0 | 76% | -6 | 34 | .
Brc1ccc(-c2nnc3n2CCCCC3)cc1 | 2.0 | 4% | 11 | -2 | -8
CCOC(=O)c1ccc(NC(=O)NCCN2CCCCC2)cc1 | -0.4 | 3% | -9 | -4 | -32 | Arbovirus anti repeat=4
NC(=O)CSc1nc(-c2ccccc2)nc2c1CCCC2 | -1.0 | -3% | 4 | -3 | .
CCN(C(=O)C(C)N1C(=O)/C(=C/c2ccco2)SC1=S)C1CCS(=O)(=O)C1 (stereo not given) | 14 | . | . | 2 | .
COc1ccc(OC)c(N(C(=O)c2ccco2)C(C(=O)NC2CCCC2)c2cc(OC)c(OC)c(OC)c2)c1 (stereo not given) | 5.4 | . | . | 9 | .
CCCc1nnc(NC(=O)C(C)N2C(=O)C3C4C=CC(C4)C3C2=O)s1 (stereo not given) | -1.8 | -3% | 3 | -3 | -31
CC(C)(C)NC(=O)Cn1c(SCC(=O)N2CCCCCC2)nc2ccccc21 | 1.0 | 2% | -5 | -7 | -37
CC(C)CCn1c(=O)c2ccccc2n2c(CCC(=O)NCC3CCCO3)nnc12 (stereo not given) | -1.0 | . | . | -8 | .
O=C(NCCc1c[nH]c2ccccc12)c1ccc2c(c1)OCO2 | -2.1 | . | . | 3 | .
Cc1cc(-n2[nH]c(C)c(C)c2=O)nc(-c2ccccc2O)n1 | 1.4 | 0% | -20 | 62 | -44
COc1ccc(COC(=O)Nc2c(SC)nsc2SC)cc1 | 6.2 | -4% | 18 | 0 | .
CCN(CC)P(=O)(Oc1cccc(C)c1)N(CC)CC | -0.9 | 4% | -1 | 1 | -31
Cc1nn(C)c(C(=O)NNC(=O)Nc2cccc(C(F)(F)F)c2)c1Cl | 4.6 | 9% | 22 | -3 | .
Cc1ccc(O)c(NC(=O)CSc2n[nH]c(-c3ccccc3)n2)c1 | -2.5 | . | . | -5 | .
CCc1nc(C)cn1S(=O)(=O)c1ccc(Br)cc1 | 2.5 | . | . | -8 | .
